# Mtb betalactam: beta-lactam sensitization of Mtb H37Rv. M. tuberculosis H37Rv growth with meropenem, percent inhibition; hits of this screen are not shown here. actives 0.27% (n = 330,000). AID 434955. inhibition, % at 25 µM;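 active = about 74% or more and at least 40 points above the plate without the antibiotic, then above 30% in a dose series; inconclusive = first-round hits that could not be retested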;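 also: growth measured after seven days incubation then overnight dye step; 0% = bacteria only wells and 100% = bacteria with antibiotic; twin plates without the antibiotic show which effects depend on it; some results filed as inactive read as strong as hits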
# RecA splice inh: Mtb RecA intein splicing inhibition; P9WHJ3; cell-free RecA intein splicing, fluorescence; inhibition, %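 (about 9 µM by stock and volumes)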; actives 0.75% (n = 290,000); AID 2221; in the data active = inhibition above about 30%; inconclusive = no clear call, values can overlap the other calls;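 also: 0% = vehicle wells and 100% = reference inhibitor control wells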
# Target sequence (P9WHJ3 whole entry, looked up, canonical isoform): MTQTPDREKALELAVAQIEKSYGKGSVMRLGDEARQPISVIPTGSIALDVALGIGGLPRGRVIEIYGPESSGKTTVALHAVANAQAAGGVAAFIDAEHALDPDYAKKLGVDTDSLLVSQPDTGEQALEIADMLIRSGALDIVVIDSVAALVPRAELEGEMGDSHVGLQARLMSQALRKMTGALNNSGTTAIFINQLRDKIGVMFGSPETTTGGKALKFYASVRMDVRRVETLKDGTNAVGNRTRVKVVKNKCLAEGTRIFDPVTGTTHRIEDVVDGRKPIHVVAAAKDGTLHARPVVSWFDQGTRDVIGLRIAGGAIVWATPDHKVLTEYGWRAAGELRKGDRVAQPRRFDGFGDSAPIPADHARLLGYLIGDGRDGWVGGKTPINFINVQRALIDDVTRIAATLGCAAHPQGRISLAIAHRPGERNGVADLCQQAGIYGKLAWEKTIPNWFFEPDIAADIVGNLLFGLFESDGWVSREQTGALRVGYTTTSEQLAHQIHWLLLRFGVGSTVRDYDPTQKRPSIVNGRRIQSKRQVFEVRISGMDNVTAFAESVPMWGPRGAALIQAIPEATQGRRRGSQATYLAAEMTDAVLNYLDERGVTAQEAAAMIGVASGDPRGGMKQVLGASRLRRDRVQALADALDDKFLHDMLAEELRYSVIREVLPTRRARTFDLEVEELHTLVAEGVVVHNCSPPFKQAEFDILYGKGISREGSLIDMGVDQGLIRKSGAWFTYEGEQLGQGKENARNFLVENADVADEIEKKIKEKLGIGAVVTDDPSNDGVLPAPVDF
# Mtb growth: M. tuberculosis H37Rv growth inhibitors, H37Rv strain (AID 1626); inhibition, % at 10 µM; hits with a dose series show IC50 in µM; actives 0.95% (n = 220,000); M. tuberculosis H37Rv growth inhibition; higher % means a stronger effect;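 active = confirmed in a dose series; inconclusive = inhibition above 80% but not taken into the dose series; inactive = below 80% or under 30% at every dose of the series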;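 also: bacteria incubated seven days before Alamar blue readout; 0% = bacteria only wells and 100% = bacteria with antibiotic wells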
# YopH inh: blocks Yersinia enterocolitica YopH tyrosine phosphatase; fluorescence Ex485/Em525; inhibition, %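 (about 10 µM by stock and volumes)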; actives 0.16% (n = 140,000); AID 898;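 active = inhibition of 50% or more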;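 also: controls were vehicle for no effect and minimum signal wells for full effect; inactives centre near -20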
# Arbovirus inh: antivirals against arbovirus infection; arbovirus infection cell-based antiviral screen; inhibition, % at 10 µM; actives 0.37% (n = 200,000);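 active = inhibition from about 30%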;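 also: bluetongue infection of BSR cells; cell survival read as ATP light after 72 h; 0% = infected wells without compound and 100% = uninfected wells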
# Arbovirus inh repeat: second read-out of Arbovirus inh, no call of its own (marks repeat the call); inhibition, %; measured here: 10K subset replicate screen; many hits read low in the repeat;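 first of two repeat runs on a subset; 0% = infected and 100% = uninfected wells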
# * hit, by the source's call; ? = inconclusive; . = not tested or not shown.
SMILES,Mtb betalactam,RecA splice inh,Mtb growth,YopH inh,Arbovirus inh,others
CCOc1ccccc1/C=C(/NC(=O)c1ccccc1)C(=O)NCC(=O)O,6,-2.8,2%,-15,0,
Cc1ccc(-c2nnc(Nc3ccc(CC(N)=O)cc3)c3ccccc23)cc1S(=O)(=O)NCC1CCCO1 (stereo not drawn),-6,-1.0,-9%,.,.,
CSCCNC(C)=O,7,-0.2,12%,-17,5,
COc1ccc(NC(=O)N2C[C@@H]3C[C@@H](C2)c2cccc(=O)n2C3)c(OC)c1,-1,15,.,.,.,
Cc1ccc(-c2noc(-c3ccccc3Br)n2)cc1,26,5.9,5%,-31,4,
Cc1oc(-c2ccccc2F)nc1CS(=O)(=O)CC(=O)N1CCN(c2ccccc2)CC1,-6,-1.4,1%,-65,4,
CCc1ccc(-c2csc(NC(=O)C3CC(=O)N(c4ccc5c(c4)OCCO5)C3)n2)cc1 (stereo not drawn),52,3.1,21%,-28,-11,
CSCCC1NC(=O)NC1=O (stereo not drawn),-5,1.2,-6%,.,8,
O=c1[nH]c(=O)n(Cc2ccco2)c(O)c1C=NCc1ccc2c(c1)OCO2,17,-0.6,-6%,-24,4,
Cc1nc(N2CCN(C(=O)c3ccco3)CC2)nc2c1C(=O)CC(C)C2 (stereo not drawn),3,-2.7,.,.,.,
CN=c1sc2ccccc2n1CC(O)COc1ccccc1 (stereo not drawn),30,-2.7,4%,-6,12,
Cc1ccc(S(=O)(=O)N2CCN(CC(=O)NC(=O)NCc3ccccc3)CC2)cc1C,5,0.0,-7%,-15,-9,
CCCCCN(C(=O)CCC(=O)OCC(=O)Nc1cccc(CC)c1)c1c(N)n(CCCC)c(=O)[nH]c1=O,-4,-1.7,.,.,.,
CCOC(=O)c1[nH]c(C)c(C(=O)Nc2ccc3c(c2)CCC3)c1C,-3,-1.5,-3%,-10,-7,
O=C(O)c1cnn(-c2ccccc2)c1C(F)(F)F,-8,1.9,-3%,.,4,
O=C(CN1CCN(c2ccc(F)cc2)CC1)Nc1ccccc1[N+](=O)[O-],-1,-1.2,4%,.,3,
O=C(Nc1cccc(Cl)c1N1CCCC1)c1cccc(-c2cc3ccccc3oc2=O)c1,96,6.5,54%,-22,-4,
O=C(C1CCCCC1)N1CCN(c2ncccn2)CC1,-18,-2.5,-6%,-28,6,Arbovirus inh repeat=8
O=C(COc1ccc(Cl)cc1)NCc1nnc(SCC(=O)Nc2ccccc2)o1,-6,1.5,7%,-2,1,
COc1cccc2sc(N(CCCN(C)C)C(=O)c3ccc(S(=O)(=O)N4CCc5ccccc5C4)cc3)nc12,4,0.6,.,.,.,
CCCc1nc2nc(C)c(NS(=O)(=O)c3ccc(F)cc3)c(=O)n2[nH]1,-5,0.4,.,.,.,
O=C(CCN1CCN(CC(=O)Nc2ccccc2Cl)CC1)Nc1ccccc1F,1,0.4,3%,-31,-8,
CC(C)N(C(=O)Cn1cc(S(=O)(=O)CC(=O)NCc2ccc(F)cc2)c2ccccc21)C(C)C,2,-0.4,.,.,.,
O=C(COc1ccc(S(=O)(=O)N2CCOCC2)cc1)N1CCN(c2ccccc2)CC1,3,-0.9,.,.,.,
CN(Cc1cc2ccccc2[nH]c1=O)S(=O)(=O)c1ccccc1,0,-0.7,-6%,-16,-2,
O=C(c1ccc(S(=O)(=O)NCC2CCCO2)cc1)N1CCN(c2ccccc2F)CC1 (stereo not drawn),3,0.2,8%,.,2,
O=C(CN(C(=O)c1csnn1)c1ccccc1)NCCc1ccccc1,6,-0.8,.,.,.,
OC(c1ccc(Cl)cc1)C(CN1CCOCC1)c1ccccc1 (stereo not drawn),-3,0.3,.,.,.,
CCOC(=O)C(O)(c1ccc(NC(=O)NC2CCCCC2)cc1)C(F)(F)F (stereo not drawn),4,-0.1,-1%,-18,4,
CSc1cccc(NC(N)=S)c1,-2,-2.5,0%,.,.,
CN(C)S(=O)(=O)c1cccc(NC(=O)c2ccc(-n3cncn3)c([N+](=O)[O-])c2)c1,4,-7.2,.,.,.,
Cc1nnc(SC(C)C(=O)Nc2sc3c(c2C#N)CCCC3)[nH]c1=O (stereo not drawn),5,-2.0,.,.,.,
Cc1c(C(=O)N2CC3(CC(c4cccc(NC(=O)CC(c5ccccc5)c5ccccc5)c4)=NO3)C[C@@H]2C(N)=O)cc([N+](=O)[O-])cc1[N+](=O)[O-] (stereo partly drawn),56,7.3,40%,.,.,
N#Cc1cn(OCc2ccccc2)c(=O)[nH]c1=O,-3,1.6,-4%,-42,3,
COc1ccc(C2c3c(oc4ccc(Cl)cc4c3=O)C(=O)N2Cc2ccco2)cc1OC (stereo not drawn),.,-1.0,-6%,-46,-3,
O=C(Cn1cc(C(=O)c2cccs2)c2ccccc21)NCC1CCCO1 (stereo not drawn),3,0.9,-2%,-101,3,
O=C(CN1CCN(Cc2cccc(F)c2)CC1)NCc1ccccc1,-7,4.7,.,.,.,
O=C(NCCN1C(=O)S/C(=C\c2ccccc2F)C1=O)C1CCN(S(=O)(=O)c2cccs2)CC1,1,4.1,-10%,-44,2,
CN(C)C(CNC(=O)c1ccc(NS(=O)(=O)c2cccc([N+](=O)[O-])c2)cc1)c1ccco1 (stereo not drawn),-15,-1.0,.,.,.,
CCNC(=O)CCSc1nc2cc(Cl)ccc2o1,-6,.,-1%,-28,-1,
Cc1noc(C)c1CN1C(=O)NC2(CCCCCCC2)C1=O,-3,-0.4,-1%,-4,2,
C=CCn1c(NCc2ccccc2)nc2ccccc21,-10,-1.7,-8%,-55,11,
CCOC(=O)C1CCN(C(=O)Cn2cc(C(=O)C3CC3)c3ccccc32)CC1,5,-0.3,5%,31,1,
O=C(/C=C/c1ccc(Cl)cc1Cl)Nc1cccc(S(=O)(=O)NC2=NCCCCC2)c1,7,-0.8,11%,-18,-3,
O=C(NN1CCCCC1)c1ccc(COc2ccc(Cl)cc2)cc1,18,-0.4,9%,.,-4,
CN(C)CCOC(=O)C12CC3(C)CC(C)(CC(C)(C3)C1)C2,7,-5.8,-7%,1,6,
CC(C)Sc1nc2c(c(=O)[nH]c(=O)n2C)n1Cc1ccccc1,-4,-0.7,.,.,.,
CCOC(=O)N1CCN(C(=O)CNC(=O)c2nn(-c3ccc(OC)c(Cl)c3)c(=O)c3ccccc23)CC1,5,1.3,.,.,.,
O=C(CSc1nccn1-c1ccc(Cl)cc1)NCc1ccc2c(c1)OCO2,-9,1.2,6%,-15,-9,Arbovirus inh repeat=-8
O=C(c1cccc(Br)c1)N1CCN(c2ccc(N3CCOCC3)nn2)CC1,-8,-7.1,.,.,.,

# Three compounds already listed, ordered by formula weight, lowest first:
SMILES,Mtb betalactam,RecA splice inh,Mtb growth,YopH inh,Arbovirus inh,others
O=C(NN1CCCCC1)c1ccc(COc2ccc(Cl)cc2)cc1,18,-0.4,9%,.,-4,
CCOC(=O)C1CCN(C(=O)Cn2cc(C(=O)C3CC3)c3ccccc32)CC1,5,-0.3,5%,31,1,
O=C(/C=C/c1ccc(Cl)cc1Cl)Nc1cccc(S(=O)(=O)NC2=NCCCCC2)c1,7,-0.8,11%,-18,-3,

# New compounds follow
SMILES,Mtb betalactam,RecA splice inh,Mtb growth,YopH inh,Arbovirus inh,others
CC(=O)N1CCN(C(=O)c2ccc(NS(=O)(=O)c3ccc4[nH]c(=O)[nH]c4c3)cc2)CC1,-5,-0.4,.,.,.,
Cc1ccc(S(=O)(=O)NCCC(=O)Nc2ccc(Cl)c(Cl)c2)cc1C,68,1.5,69%,-22,-7,
COc1ccccc1C(=O)NCCC(=O)Nc1ccc(OC(F)(F)F)cc1,0,0.4,.,.,.,
CSC(C(=O)c1cc2ccccc2o1)c1ccccc1 (stereo not drawn),87,-4.0,.,.,.,
CCOC(=O)c1ccc(NS(=O)(=O)c2ccc3c(c2)oc(=O)n3C)cc1,?,-2.2,-9%,-11,6,Arbovirus inh repeat=11
O=C(NC(=C(Cl)Cl)S(=O)(=O)c1ccc(Cl)cc1)c1ccccc1,0,30*,-17%,.,.,
CN(CC(=O)NCc1ccncc1)S(=O)(=O)c1cc(Cl)ccc1Cl,-5,5.9,.,.,.,
Cc1c(NC(=O)C23CC4CC(CC(C)(C4)C2)C3)c(=O)n(-c2ccccc2)n1C,11,3.7,-4%,-42,0,
Cc1cc(C)cc(NC(=O)C2CCC(CNC(=O)[C@@H]3Cc4ccccc4CN3)CC2)c1 (stereo partly drawn),-3,4.4,.,.,.,
CC(=O)NCC(=O)N1CCCC(C(=O)c2ccc3c4c(cccc24)CC3)C1 (stereo not drawn),3,-2.9,2%,.,2,

# Of the compounds above, 4 have two or more sulfur atoms.
SMILES,Mtb betalactam,RecA splice inh,Mtb growth,YopH inh,Arbovirus inh,others
COc1cccc2sc(N(CCCN(C)C)C(=O)c3ccc(S(=O)(=O)N4CCc5ccccc5C4)cc3)nc12,4,0.6,.,.,.,
CSc1cccc(NC(N)=S)c1,-2,-2.5,0%,.,.,
Cc1nnc(SC(C)C(=O)Nc2sc3c(c2C#N)CCCC3)[nH]c1=O (stereo not drawn),5,-2.0,.,.,.,
O=C(NCCN1C(=O)S/C(=C\c2ccccc2F)C1=O)C1CCN(S(=O)(=O)c2cccs2)CC1,1,4.1,-10%,-44,2,

# Additional structures follow:
SMILES,Mtb betalactam,RecA splice inh,Mtb growth,YopH inh,Arbovirus inh,others
COc1cc(NC(=O)CC(C)C)ccc1NC(=O)c1ccco1,4,-2.7,2%,1,0,Arbovirus inh repeat=0
Cc1noc(C)c1COc1cccc(C(=O)N2CCN(C/C=C/c3ccccc3)CC2)c1,4,2.2,-1%,-43,-2,
Fc1ccc(OCc2cc(-c3ccccc3)no2)cc1,-5,0.1,.,.,.,
O=C(CSc1nnc2ccc(-c3cccnc3)nn12)Nc1ccc(F)cc1,-6,1.4,.,.,.,
CCn1c(C)nc2cc(C(=O)N/N=C(\C)c3ccc(OC)cc3O)ccc21,.,-11,7%,.,-24,
Cc1nc2sc(C(c3cccc(F)c3)N3CCC(C)CC3)c(O)n2n1 (stereo not drawn),-2,2.1,-7%,-15,-2,
Cc1ccc(S(=O)(=O)CCC(=O)Nc2nnc(-c3ccccc3S(C)(=O)=O)o2)cc1,-10,-0.1,.,.,.,
Nc1cccc(C(=O)Nc2ccccc2Cl)c1,-8,-1.3,-2%,3,-6,
Cc1ccc(S(=O)(=O)N2CCN(C(=O)CSc3ncn[nH]3)CC2)c(C)c1,-3,-0.6,.,.,.,
O=C(O)Cc1csc(-c2ccc(F)cc2)n1,-2,11,-4%,.,1,
COc1ccc(Cc2[nH]n3c(=O)cc(C(C)C)nc3c2-c2ccccc2)cc1,9,3.0,70%,.,-13,
Cc1ccc2c(c1)N=C(c1ccc(Cl)cc1)CO2,4,-3.3,-2%,7,5,
CCN(CC)CCNC(=O)Cc1c(C(=O)O)n(C)c2ccccc12,3,0.6,2%,-12,4,
COc1cccc(C2[C@H](C)C3(CCN2C)OCCO3)c1 (stereo partly drawn),9,-9.3,2%,-23,-10,
O=C(NCc1ccc2c(c1)OCO2)c1cc([N+](=O)[O-])ccc1N1CCCCC1,2,6.9,6%,-28,-8,
O=C(COC(=O)c1cccc(OC(F)F)c1)NC(=O)NC1CCCCC1,-6,2.5,.,.,.,
CCOc1ccc(NC(=O)C2CCCN(S(=O)(=O)c3ccc(-n4cnnn4)cc3)C2)cc1 (stereo not drawn),-9,-2.0,.,.,.,
CCC(=O)Nc1ccc(S(=O)(=O)Nc2c(NC)c3ccccc3oc2=O)cc1,4,-2.4,.,.,.,
COC(=O)c1ccc(Cn2nnc3c(=O)[nH]c(C4CCN(S(=O)(=O)c5ccc(F)cc5)CC4)nc32)cc1,95,-4.1,.,.,.,
c1ccc2c(c1)SCc1nnc(-c3ccncc3)n1-2,-2,1.0,-9%,.,.,
COCCN(C(=O)CSc1nnc(-c2ccc(C(C)(C)C)cc2)n1N)c1c(N)n(CC(C)C)c(=O)[nH]c1=O,-1,0.2,.,.,.,
O=C(COc1ccc(F)cc1)Nc1ccc(-n2cnnn2)cc1,-4,0.0,6%,-3,10,Arbovirus inh repeat=10
Cc1ccc(Cl)c(OCC(=O)Nc2cc(S(=O)(=O)N3CCOCC3)ccc2N2CCCC2)c1,-9,3.0,.,.,.,
Cc1ccc2c(c1)-c1c(cnn1CC(=O)N(Cc1ccco1)C1CCCCC1)CO2,8,7.3,7%,-31,-31,
CC(C)(C)c1cc(N/C=C\c2nnnn2-c2ccc(Br)cc2)no1,-7,1.4,-3%,35,4,
O=C(Nc1ccc(N2CCOCC2)cc1N1CCOCC1)c1ccc(Cl)cc1,-7,-2.7,.,.,.,
CC1(C)Cc2c(C#N)c(N3CCN(C(=O)c4ccco4)CC3)nc(-c3ccco3)c2CS1,0,-6.9,7%,7,-6,
COc1ccc(C(=O)COC(=O)/C=C/c2ccc(S(=O)(=O)Nc3cccc(S(N)(=O)=O)c3)cc2)cc1,0,-1.7,5%,.,-24,
CCCCCN1C(C)=CC(=C(C#N)C#N)C=C1C,-7,-5.0,5%,.,14,

# Source: PubChem BioAssay (several laboratories)

# An excerpt, so the mix of outcomes need not match the whole.
